# Mtb bLac sens = beta-lactam sensitization of Mtb H37Rv; M. tuberculosis H37Rv growth with meropenem, percent inhibition; hits of this screen are not shown here; inhibition, % at 25 µM; actives 0.27% (n = 330,000); AID 434955;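 active means about 74% or more and at least 40 points above the plate without the antibiotic, then above 30% in a dose series; inconclusive means first-round hits that could not be retested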;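 further: growth measured after seven days incubation then overnight dye step; 0% = bacteria only wells and 100% = bacteria with antibiotic; twin plates without the antibiotic show which effects depend on it; some results filed as inactive read as strong as hits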
# YopH inh = inhibitors of Yersinia enterocolitica YopH tyrosine phosphatase. fluorescence Ex485/Em525. inhibition, %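 (about 10 µM by stock and volumes)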. actives 0.16% (n = 140,000);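 active means inhibition of 50% or more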;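 further: controls were vehicle for no effect and minimum signal wells for full effect; inactives centre near -20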
# Mtb growth = M. tuberculosis H37Rv growth inhibitors, H37Rv strain (AID 1626); M. tuberculosis H37Rv growth inhibition; higher % means a stronger effect; one-dose inhibition, % at 10 µM; IC50 in µM for titrated hits; actives 0.95% (n = 220,000);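 active means confirmed in a dose series; inconclusive means inhibition above 80% but not taken into the dose series; inactive means below 80% or under 30% at every dose of the series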;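 further: bacteria incubated seven days before Alamar blue readout; 0% = bacteria only wells and 100% = bacteria with antibiotic wells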
# Arbovirus inh = antivirals against arbovirus infection; arbovirus infection cell-based antiviral screen; inhibition, % at 10 µM; actives 0.37% (n = 200,000); AID 1251;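 active means inhibition from about 30%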;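 further: bluetongue infection of BSR cells; cell survival read as ATP light after 72 h; 0% = infected wells without compound and 100% = uninfected wells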
# RecA splice inh = blocks M. tuberculosis RecA intein splicing; P9WHJ3; cell-free RecA intein splicing, fluorescence; inhibition, %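 (about 9 µM by stock and volumes)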; actives 0.75% (n = 290,000); in the data active means inhibition above about 30%; inconclusive means no clear call, values can overlap the other calls;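 further: 0% = vehicle wells and 100% = reference inhibitor control wells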
# Target sequence (P9WHJ3 whole entry, looked up, canonical isoform): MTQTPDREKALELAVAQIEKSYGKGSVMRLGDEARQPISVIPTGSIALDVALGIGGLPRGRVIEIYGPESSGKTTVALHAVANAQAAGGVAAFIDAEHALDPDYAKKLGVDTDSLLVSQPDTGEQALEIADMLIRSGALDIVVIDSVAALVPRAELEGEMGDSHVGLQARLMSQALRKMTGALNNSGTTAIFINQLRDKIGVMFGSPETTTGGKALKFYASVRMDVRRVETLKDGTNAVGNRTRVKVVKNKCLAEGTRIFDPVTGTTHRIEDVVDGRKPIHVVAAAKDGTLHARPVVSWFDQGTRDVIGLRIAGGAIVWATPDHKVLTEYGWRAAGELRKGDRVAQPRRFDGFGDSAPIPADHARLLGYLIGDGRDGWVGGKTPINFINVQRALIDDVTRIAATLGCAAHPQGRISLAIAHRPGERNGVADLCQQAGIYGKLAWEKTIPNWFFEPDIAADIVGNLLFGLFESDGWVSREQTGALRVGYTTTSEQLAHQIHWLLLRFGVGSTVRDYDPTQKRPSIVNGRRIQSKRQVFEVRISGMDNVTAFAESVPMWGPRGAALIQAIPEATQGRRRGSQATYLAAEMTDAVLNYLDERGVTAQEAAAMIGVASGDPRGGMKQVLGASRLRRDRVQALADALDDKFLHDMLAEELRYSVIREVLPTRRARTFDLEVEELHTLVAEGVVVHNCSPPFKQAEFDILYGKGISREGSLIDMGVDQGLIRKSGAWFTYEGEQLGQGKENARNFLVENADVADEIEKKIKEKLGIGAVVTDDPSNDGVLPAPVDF
# Arbovirus inh repeat = recorded beside Arbovirus inh, whose call it bears; inhibition, %; measured here: 10K subset replicate screen; many hits read low in the repeat;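 first of two repeat runs on a subset; 0% = infected and 100% = uninfected wells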
# An asterisk follows results filed as active; ? = inconclusive; . = not tested or not shown. Some of the compounds tested; count on the stated rates, not on these rows.
# The opening four entries, to show the layout:
SMILES,Mtb bLac sens,YopH inh,Mtb growth,Arbovirus inh,RecA splice inh,others
CC[C@@H](C)[C@H](NC(=O)Cc1c(C)c2cc3c(C)c(C)oc3c(C)c2oc1=O)C(=O)O,5,.,.,.,1.1,
CC(C)OCCCNC(=O)c1sc(=S)n(C)c1N,0,-4,-7%,-8,-1.1,
COc1ccc(C(=O)N=C2SC3CS(=O)(=O)CC3N2c2ccc(C(C)=O)cc2)cc1 (stereo not drawn),1,.,.,.,-1.4,
COc1ccc(NC(=O)CSc2nnc(CNc3ccc(C)cc3)n2C)cc1,-3,.,1%,5,-0.3,

# The whole of this part, previewed entries included:
SMILES,Mtb bLac sens,YopH inh,Mtb growth,Arbovirus inh,RecA splice inh,others
CC[C@@H](C)[C@H](NC(=O)Cc1c(C)c2cc3c(C)c(C)oc3c(C)c2oc1=O)C(=O)O,5,.,.,.,1.1,
CC(C)OCCCNC(=O)c1sc(=S)n(C)c1N,0,-4,-7%,-8,-1.1,
COc1ccc(C(=O)N=C2SC3CS(=O)(=O)CC3N2c2ccc(C(C)=O)cc2)cc1 (stereo not drawn),1,.,.,.,-1.4,
COc1ccc(NC(=O)CSc2nnc(CNc3ccc(C)cc3)n2C)cc1,-3,.,1%,5,-0.3,
COc1ccc(NC(=O)C2CC(=O)N(c3ccccc3C)C2)c(OC)c1 (stereo not drawn),-8,.,.,.,0.5,
CC(=O)Nc1c2c(nn1-c1ccccc1C)CSC2,6,.,.,.,1.0,
O=C(CSc1nc(-c2ccc(Cl)cc2)[nH]c(=O)n1)Nc1cccc(Cl)c1,56,.,-7%,.,9.6,
CC(=O)c1cc(C#N)c(NCCCN(C)C)nc1C,5,.,1%,-4,-1.3,
COC(=O)C1CCN(C(=O)/C=C/c2ccccc2)CC1,0,-3,-5%,0,0.2,
N#Cc1ccc(C(=O)Nc2ccn(-c3ccccc3)n2)cc1,15,5,22%,-10,4.9,
CC1CCCC(NC(=O)COC(=O)Cc2c[nH]c3ccccc23)C1C (stereo not drawn),-1,.,-9%,3,-1.0,
Cc1ccccc1/C=N/Nc1ccnc2cc(Cl)ccc12,-7,-27,?,-3,-5.7,
CC(=O)N1CCC(N(C(=O)Nc2ccc(C)c(C)c2)C2CCCC2)CC1,3,-34,-2%,-2,2.0,
O=S(=O)(c1ccc(F)cc1)N1CCC(O)(c2ccc3c(c2)OCO3)CC1,-3,-33,-8%,2,0.6,
O=C(NC1CCCC1)C(c1ccc(Cl)cc1)N1CCN(C2CCCCC2)CC1 (stereo not drawn),-12,.,-1%,.,2.0,
COCc1cc(=O)[nH]c2cc(NC(=O)C(C)(C)CCl)c(C)cc12,-5,-30,-7%,1,-2.6,
COc1cccc(CNc2nc3nc4c(c(=O)n3[nH]2)CCC4)c1,97,-48,-14%,1,-0.6,
Cc1cc(C)c(S(=O)(=O)NC(C)C)c(C)c1-n1cnnn1,-4,.,-10%,-4,3.9,
COc1ccc(NC(=O)CS(=O)(=O)c2ccc(Br)cc2)cc1,29,.,.,.,0.9,
Cc1ccc(C)c(NC(=O)NNC(=O)c2cc3ccccc3cc2O)c1,3,.,.,.,-16,
CC(=O)NC1(c2ccc(F)cc2)CCN(C(=O)c2c(F)cccc2F)CC1,9,.,-2%,5,-2.2,
Fc1ccccc1NC(=S)N1CCCCC1,-3,-38,-2%,-2,-4.3,
CCOc1cc(/C=N/N=C2/NC(=O)C(CC(=O)O)S2)ccc1OCc1ccc(Cl)cc1Cl (stereo not drawn),3,.,-4%,6,7.9,
COc1ccc(-c2cc(C(=O)NCC3CCCO3)c3ccccc3n2)cc1 (stereo not drawn),3,.,9%,-2,-2.6,
CC(=O)/C(C#N)=C1\NC(=O)C(Cc2ccc(F)cc2)S1 (stereo not drawn),-1,.,-4%,.,1.7,
Cc1ccc(-n2c(C)cc(/C=c3/sc4nc5ccccc5n4c3=O)c2C)cc1,3,12,-12%,15,3.8,
O=C(COc1cccnc1[N+](=O)[O-])NCCc1ccccc1,-11,.,4%,4,-1.9,
COc1ccc2c(CC(=O)OCC(=O)NC(=O)c3cccn3C)coc2c1,-2,-11,-1%,-8,3.0,
CCCCOc1ccc(S(=O)(=O)NC(=O)NCc2ccc(OCCC)cc2)cc1,-3,1,0%,11,-1.8,
Cc1cc(=O)oc2c(C)c(OCC(=O)N(C)C)ccc12,-18,0,-7%,-4,.,
CCOC(=O)C(NC(=O)c1cccc(Cl)c1)(Nc1nnc(C)s1)C(F)(F)F (stereo not drawn),-3,-27,-4%,4,1.5,
CCC(CC)NC(=O)COC(=O)c1cc(SC)ccc1Cl,6,.,3%,-1,1.4,
Cc1cc(C(=O)COC(=O)CN(C)S(=O)(=O)c2ccc(Cl)cc2)c(C)n1CC1CCCO1 (stereo not drawn),-2,-48,3%,6,3.5,
Cc1ccc(/C=N\NC(=O)CCc2n[nH]c(=O)[nH]c2=O)o1,-3,.,-1%,1,0.2,
Cc1ccc2nc(-c3ccc(S(=O)(=O)N4CCOCC4)cc3)cn2c1,.,-17,6%,-8,-2.6,
O=C(Nc1ccncc1NC(=O)c1cccc([N+](=O)[O-])c1)c1cccc([N+](=O)[O-])c1,2,.,-3%,-8,0.0,
Cc1ccc(C(=O)NCCCN2CCOCC2)cc1N1CCCC1=O,-14,-11,5%,5,3.2,
COc1ccc(NC(C)=O)cc1S(=O)(=O)NC1CCSc2ccccc21 (stereo not drawn),-3,.,.,.,-2.2,
CCC1(c2ccc(F)cc2)NC(=O)N(CC(=O)NCC(=O)Nc2cccc(C)c2C)C1=O (stereo not drawn),-4,.,.,.,-0.2,
CCCCOC(=O)C(NC(=O)c1ccccc1)=C(C)C,-5,-30,-8%,2,1.7,
O=C(Nc1nnc(CSCc2ccc(Cl)cc2)s1)c1cccc([N+](=O)[O-])c1,1,-22,-5%,10,-0.6,
CCOc1cc(Cl)c(S(=O)(=O)NCCCn2ccnc2)cc1Cl,13,.,.,.,1.4,
C=CCn1c(COc2ccc(F)cc2)nnc1SCC(=O)N1CC(=O)Nc2ccccc21,-11,7,-3%,3,7.4,
CCC(O)C1CCN(C(=O)c2cc(COc3ccc4ncccc4c3)on2)CC1 (stereo not drawn),1,.,-1%,8,-3.6,
Cc1noc(C)c1CN1C(=O)c2ccccc2C1=O,-1,.,.,.,-0.7,

# Six compounds already listed, sorted by length of the SMILES, high to low:
SMILES,Mtb bLac sens,YopH inh,Mtb growth,Arbovirus inh,RecA splice inh,others
CCOC(=O)C(NC(=O)c1cccc(Cl)c1)(Nc1nnc(C)s1)C(F)(F)F (stereo not drawn),-3,-27,-4%,4,1.5,
COc1ccc(NC(=O)C2CC(=O)N(c3ccccc3C)C2)c(OC)c1 (stereo not drawn),-8,.,.,.,0.5,
Cc1ccc(/C=N\NC(=O)CCc2n[nH]c(=O)[nH]c2=O)o1,-3,.,-1%,1,0.2,
CC1CCCC(NC(=O)COC(=O)Cc2c[nH]c3ccccc23)C1C (stereo not drawn),-1,.,-9%,3,-1.0,
CC(=O)/C(C#N)=C1\NC(=O)C(Cc2ccc(F)cc2)S1 (stereo not drawn),-1,.,-4%,.,1.7,
CCOc1cc(Cl)c(S(=O)(=O)NCCCn2ccnc2)cc1Cl,13,.,.,.,1.4,

# The list continues.
SMILES,Mtb bLac sens,YopH inh,Mtb growth,Arbovirus inh,RecA splice inh,others
C=CCc1cc(C)ccc1OCCOCCC(C(=O)OCC)C(=O)OCC,3,-31,-8%,-5,3.2,
CCOC(=O)/C(C#N)=C/Nc1cc(C(C)(C)C)sc1C(C)=O,-10,.,-8%,.,-6.2,
O=[N+]([O-])c1ccc(Oc2cccc3cccnc23)c(Cl)c1,8,.,.,.,5.6,
O=C(N/N=C/c1ccncc1)c1cc(-c2ccc(Br)s2)[nH]n1,4,.,.,.,2.9,
CCNC(=O)CSc1ncnc2sccc12,-8,-14,-8%,2,1.8,
COC(=O)c1c(C)oc2ccc(N(C(=O)c3ccncc3)S(=O)(=O)c3ccc(C)cc3C)cc12,11,-31,-2%,-22,56*,
Cc1c(Cl)sn(-c2ccc(Cl)cc2)c1=O,.,.,?,-27,.,
N=c1sccn1CC(=O)Nc1ccc(S(N)(=O)=O)cc1,-1,.,-6%,.,1.0,
O=C1/C(=C\c2ccco2)SC(=S)N1C1CCCCC1,5,.,.,.,3.1,
O=C1COc2ccc(C(=O)NCc3ccco3)cc2N1,1,-21,1%,-3,-0.9,
CCCCn1c(N)c(N(CCOC)C(=O)c2ccc(N(C)S(=O)(=O)c3ccc(C)cc3)cc2)c(=O)[nH]c1=O,-7,.,.,.,-5.7,
COC(=O)[C@H](Cc1ccccc1)NC(=O)N1CCC(C)CC1,-3,4,-2%,7,-0.9,
COCC(=O)NC1CC2CCC(C1)N2C(=S)Nc1ccccc1C(=O)OC (stereo not drawn),-8,.,-2%,3,-0.9,
O=c1[nH]c2ccc(NS(=O)(=O)c3ccc4ccccc4c3)cc2[nH]1,1,.,4%,6,-1.9,
O=c1c2ccc([N+](=O)[O-])cc2ncn1CCOc1cccc(Br)c1,4,.,9%,6,2.1,
CC(C)(C)c1cc(C(=O)NNC(=O)Nc2cccc(Cl)c2)n(Cc2ccccc2)n1,-8,.,-3%,.,0.6,
O=c1c2ccccc2nc(SCc2ccc(F)cc2Cl)n1CCCN1CCOCC1,61,.,11%,.,14,
CSc1ccccc1OC1CCN(Cc2ccccc2)CC1,8,-22,7%,10,1.6,
COc1cc(Br)ccc1C1CC(=O)C(C)C(c2ccc(Br)cc2OC)N1 (stereo not drawn),-2,.,.,.,8.8,
CN(C)c1nc(-c2ccccn2)nnc1-c1ccccc1,91,-14,68%,-25,8.0,
COC(=O)CSc1cc([N+](=O)[O-])ccc1NC(=O)OC,-3,.,-8%,2,-1.4,
Cc1cccc(C(=O)OCC(=O)NC(C)CCc2ccccc2)c1 (stereo not drawn),-11,.,10%,6,1.5,
COc1ccc(CN2CCNC(=O)C2CC(=O)N(C)CCC2CCOCC2)cc1OC (stereo not drawn),0,.,.,.,-0.2,
Cc1cc(NC(=O)CCC(=O)N(C2CC2)C(C(=O)NC(C)(C)C)c2ccccc2Cl)no1 (stereo not drawn),-2,.,.,.,2.3,
COc1ccccc1C1=NOC(Cn2c(NCC3CCCO3)nc3c2c(=O)n(C)c(=O)n3C)C1 (stereo not drawn),-7,.,-7%,.,.,
COCCn1c(SCC(=O)Nc2ccc3c(c2)CCC3)nc2ccccc2c1=O,-2,-44,4%,0,-1.2,
O=C(COC(=O)c1cc(Cl)ccc1Cl)Nc1ccc2[nH]c(=O)[nH]c2c1,-7,.,.,.,1.0,
COc1cc(C2(O)CCCCC2C)cc(OC)c1OC (stereo not drawn),3,-39,-4%,2,0.8,
O=C(NC1CCCN(Cc2ccc(Cl)cc2)C1)c1ccccc1C(F)(F)F (stereo not drawn),-8,.,.,.,-0.2,
CC(=O)c1ccc(NC(=O)CCS(=O)(=O)c2ccc3c(c2)n(C)c(=O)c(=O)n3C)cc1,-4,.,.,.,1.4,
Cc1cccc2sc(N(CCCN(C)C)C(=O)c3nc4ccccc4s3)nc12,-4,-23,5%,9,-2.1,
COc1cccc(NC(=O)C(Sc2nnnn2C)c2ccccc2)c1 (stereo not drawn),4,.,2%,10,-1.4,
CSc1sc(C(=O)NCC2CC2)c2c1S(=O)(=O)N(C)c1ccccc1-2,1,.,-2%,.,1.5,
CCCCOC(=O)n1c(SCC(=O)N(C)C)nc2ccccc21,-16,-39,-4%,7,-1.5,
Cc1ccc(NC2CCCN(C(=O)c3ccoc3)C2)cc1C (stereo not drawn),0,.,.,.,8.7,
CC(CC(=O)Nc1cccc(F)c1)S(=O)(=O)c1ccc2c(c1)NC(=O)CO2 (stereo not drawn),0,.,.,.,-0.2,
OC(CNCCc1ccccc1)COc1ccc(OCC(O)CNCCc2ccccc2)cc1 (stereo not drawn),2,.,-7%,.,0.2,
Cc1cc(C)nc(N2CCCC(C(=O)Nc3nnc(C(C)C)s3)C2)n1 (stereo not drawn),.,-37,-4%,5,-0.9,
Cn1ncc(Cl)c1C(=O)NC(=S)Nc1sc2c(c1C#N)CCCCC2,-1,-15,-3%,8,-1.0,
CCn1cc(S(=O)(=O)c2ccc(OC)cc2)c(=O)c2cc(OC)ccc21,?,.,.,.,1.2,
O=C(O)c1ccccc1C(=O)N1CCN(C(=O)c2ccccc2Cl)CC1,2,.,-9%,12,0.8,
Cc1ccc2cc(CN(CC3CCCO3)C(=O)Nc3ccccc3F)c3nnnn3c2c1 (stereo not drawn),3,.,-7%,4,-4.4,
CC1CCc2nc3ccc(S(=O)(=O)N4CCC(C(=O)NC5CCCC5)CC4)cc3c(C(=O)O)c2C1 (stereo not drawn),.,-38,-1%,5,.,Arbovirus inh repeat=2
COc1ccc(CN(CC2CCC(C(=O)O)CC2)C(=S)Nc2cc(Cl)ccc2OC)cc1 (stereo not drawn),3,.,-4%,14,-0.1,
COc1cccc(CNC(=O)CSc2ccc(-c3ccncc3)nn2)c1,-12,.,5%,14,-0.6,

# Screens as filed in PubChem.
